Assay outcomes (PubChem BioAssay)
FEN1 inh – inhibitors of human flap endonuclease 1; P39748; Recombinant FEN1 flap cleavage, fluorescence, 15 min; Potency, µM (top dose mostly 114 µM), inactives show at the top dose activity change, negative = inhibition, hits mostly inhibitors; 390,000 compounds, 0.35% hits; AID 588795; further: nearly all actives have a fitted effect of over 65% in size
Target sequence (P39748 whole entry, looked up): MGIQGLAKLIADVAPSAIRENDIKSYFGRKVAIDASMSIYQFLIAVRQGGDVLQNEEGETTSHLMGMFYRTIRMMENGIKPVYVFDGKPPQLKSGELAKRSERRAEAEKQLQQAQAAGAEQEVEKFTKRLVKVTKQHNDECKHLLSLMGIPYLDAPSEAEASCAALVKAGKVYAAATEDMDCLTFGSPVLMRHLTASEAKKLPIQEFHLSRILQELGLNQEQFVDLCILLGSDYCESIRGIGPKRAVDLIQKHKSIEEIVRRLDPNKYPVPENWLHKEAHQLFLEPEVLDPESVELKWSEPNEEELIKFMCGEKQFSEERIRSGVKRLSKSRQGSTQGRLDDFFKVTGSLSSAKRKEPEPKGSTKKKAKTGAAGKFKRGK
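Potency values derive from four-parameter Hill fits of normalized qHTS data. The reaction used 10 nM FEN1 preincubated 15 min at room temperature with compound, then 50 nM DNA substrate, read at 0 and 15 min.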
TDP1 block – inhibitors of human tyrosyl-DNA phosphodiesterase TDP1 | AID 485290 | recombinant TDP1, AlphaScreen DNA substrate cleavage | 350,000 compounds, 0.28% hits | Potency, µM (highest dose often 130 µM), for the others: at the highest dose activity change, negative = inhibition, actives largely listed as inhibitors; further: nearly all actives have a fitted effect of over 40% in size
Target sequence (Q9NUW8 whole entry, looked up): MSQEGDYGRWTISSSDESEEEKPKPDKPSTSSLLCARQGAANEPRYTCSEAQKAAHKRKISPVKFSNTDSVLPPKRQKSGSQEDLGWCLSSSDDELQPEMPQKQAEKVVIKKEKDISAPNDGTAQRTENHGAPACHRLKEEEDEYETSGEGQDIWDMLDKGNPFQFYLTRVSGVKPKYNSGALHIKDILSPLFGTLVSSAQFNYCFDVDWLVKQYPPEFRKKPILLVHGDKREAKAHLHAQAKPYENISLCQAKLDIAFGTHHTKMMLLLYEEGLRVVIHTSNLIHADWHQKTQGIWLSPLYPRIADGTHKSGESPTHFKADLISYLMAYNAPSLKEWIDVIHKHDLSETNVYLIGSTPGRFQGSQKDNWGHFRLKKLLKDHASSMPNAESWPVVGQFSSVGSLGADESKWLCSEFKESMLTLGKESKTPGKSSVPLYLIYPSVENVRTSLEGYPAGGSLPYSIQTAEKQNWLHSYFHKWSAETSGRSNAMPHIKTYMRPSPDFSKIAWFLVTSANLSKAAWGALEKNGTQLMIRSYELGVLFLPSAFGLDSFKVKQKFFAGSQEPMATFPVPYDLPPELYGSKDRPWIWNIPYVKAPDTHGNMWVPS
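AlphaScreen read-out: signal falls as enzyme removes the 3' tyrosine-FITC from a 5'-biotinylated DNA oligo (15 nM, 5 min, RT). Enzyme was E. coli-made recombinant Tdp1 at 1 nM, exposed to compound for 15 min beforehand; beads 10 ug/ml, 10 min.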
The depositor's hits bear a star; . = no result given; & = joins results of further samples; [ ] = another dose, or the depositor's remark. The call rests on the fitted dose curve; in most records, active means well fitted inhibition curve with a large enough effect; inconclusive means small, poorly fitted or top-dose-only effect; inactive means no such curve, though single readings can be large or run the other way. On the % scale 0 is the no-effect control and ±100 the full control effect; potency means the concentration at half of the fitted maximal effect. The list is partial, and most or all hits are left out here.

Each structure is followed by: FEN1 inh	TDP1 block
1) CN(C)Cc1c(C(=O)Nc2ccccc2)[nH]c2ccccc12
 : -10%	0%
2) CC(C)NC(=O)c1ccccc1NS(=O)(=O)c1ccc(Br)s1
 : 5%	5%
3) CCOC(=O)c1cnc(-c2ccccc2)[nH]c1=O
 : -2%	5%
4) CC1(C)CC(=O)C(C(=S)Nc2ccc(F)cc2)=C(NCCN2CCOCC2)C1
 : 0%	1%
5) Cc1cc(NN)nc(NS(=O)(=O)c2ccccc2Cl)n1
 : -6%	0%
6) Cc1cc(C)nc(NNC(=O)c2ccccc2O)n1
 : 18%	3%
7) COc1ccc(C)cc1NC(=O)CCS(=O)(=O)c1ccc2c(c1)CCN2C(C)=O
 : 14%	0%
8) Brc1cc2c(cc1Br)OCCOCCOCCO2
 : 1%	.
9) O=S(=O)(c1ccc(Cl)cc1)N1CCN(c2ncccn2)CC1
 : -4%	0%
10) O=[N+]([O-])c1cc2cccnc2c2ncccc12
 : -20%	0%
11) O=c1cnnc(Nc2cccc(F)c2)[nH]1
 : 8%	1%
12) CCOC(=O)/C(=C/C=C/c1ccccc1)NC(=O)c1ccccc1
 : -3%	3%
13) Cc1ccc(SCc2cn3c(C)csc3n2)cc1
 : 10%	9%
14) COC(=O)CNC(=O)c1ccc(OC2CCN(C(=O)C3CC3)CC2)cc1
 : 0%	3%
15) CC1(C)N(O)CC(c2cccs2)=[N+]1[O-]
 : 11%	2%
16) O=C(CCCCn1c(=O)c2ccccc2n(Cc2ccc(F)cc2)c1=O)NCc1ccco1
 : -7%	0%
17) C#CC[N+](CC)(CC)CC#Cc1ccccc1
 : 7%	.
18) Cc1ccc(Cl)cc1N1CCN(C(=O)C(=O)N2CCCCC2)CC1
 : -3%	0%
19) CCC(CC)COC(=O)C1=C(C)NC(=O)NC1c1ccc([N+](=O)[O-])cc1 (centres undefined)
 : 15%	.
20) COC(=O)c1ccc2nc(Nc3nc4c(F)cc(F)cc4s3)sc2c1
 : -6%	1%

Filtered by structure, the compounds so far with fluorine
Each structure is followed by: FEN1 inh	TDP1 block
4) CC1(C)CC(=O)C(C(=S)Nc2ccc(F)cc2)=C(NCCN2CCOCC2)C1
 : 0%	1%
11) O=c1cnnc(Nc2cccc(F)c2)[nH]1
 : 8%	1%
16) O=C(CCCCn1c(=O)c2ccccc2n(Cc2ccc(F)cc2)c1=O)NCc1ccco1
 : -7%	0%
20) COC(=O)c1ccc2nc(Nc3nc4c(F)cc(F)cc4s3)sc2c1
 : -6%	1%

Following part.
Each structure is followed by: FEN1 inh	TDP1 block
21) CCOC(=O)CNC(=O)Cn1cnc2c(oc3ccccc32)c1=O
 : 2%	2%
22) COc1cccc(-c2nc(-c3ccncc3)no2)c1
 : -8%	.
23) Cn1c(=O)[nH]c(=O)c2c1nc(N1CCN(Cc3ccccc3)CC1)n2CCSc1ncccn1
 : -13%	4%
24) CCN(CC)CCN=CC1=C(O)CNC1=O
 : -2%	-14%
25) CC(C)(C)OCC(O)CN1CCN(C(=O)c2ccccc2)CC1 (centres undefined)
 : -1%	.
26) O=C(c1cc(-c2ccccc2)n[nH]1)N1CCc2c([nH]c3ccccc23)C1c1ccccn1 (centres undefined)
 : -25%	9%
27) CCCCN(C)C(=O)c1cc2c(s1)-c1ccccc1S(=O)(=O)C2
 : -7%	.
28) CC1(C)CC(=O)C2=C(C1)OC(N)=C(C#N)[C@@]21C(=O)N(CC(N)=O)c2ccccc21
 : 3%	4%
29) Cc1c(C(=O)NC2=NCCS2)cccc1[N+](=O)[O-]
 : 4%	.
30) COC(=O)c1ccsc1NC(=O)c1ccccc1
 : 12%	-1%

Sorted by the number under TDP1 block (high to low): 3 from the list above.
cpd	SMILES	TDP1 block
21	CCOC(=O)CNC(=O)Cn1cnc2c(oc3ccccc32)c1=O	2%
30	COC(=O)c1ccsc1NC(=O)c1ccccc1	-1%
24	CCN(CC)CCN=CC1=C(O)CNC1=O	-14%

(further entries)
Each structure is followed by: FEN1 inh	TDP1 block
31) O=C(NC1CCCCCCC1)C1CCC(CNc2c(N3CCCC3)c(=O)c2=O)CC1 (centres undefined)
 : 20%	-3%
32) COc1ccccc1CNC(=O)C1CCCN(S(=O)(=O)c2c(C)[nH]c(=O)[nH]c2=O)C1 (centres undefined)
 : 2%	7%
33) Cc1cc(/C=C/C(=O)O)c(C)n1-c1ccc(Cl)cc1
 : -1%	8%
34) O=c1[nH]cc(C(F)(F)F)cc1NS(=O)(=O)c1ccccc1[N+](=O)[O-]
 : 8%	-4%
35) COc1nccnc1NS(=O)(=O)c1ccc(NC(=S)NC(=O)c2ccc(F)cc2)cc1
 : 4%	1%
36) COc1ccc(C2CC2C(C)=O)cc1 (centres undefined)
 : 8%	6%
37) Cc1ccc(S(=O)(=O)NCCC(=O)Nc2ccc3c(c2)OCO3)cc1
 : 0%	2%
38) c1ccc(Cc2nn3c(C4COc5ccccc5O4)nnc3s2)cc1 (centres undefined)
 : -3%	0%
39) Cc1nnc(SCC(=O)Nc2ccc3c(c2)OCCO3)s1
 : 4%	7%
40) COc1ccc(CN2CCNC(=O)C2CC(=O)NCc2cc(C)n(C)n2)c(F)c1 (centres undefined)
 : 3%	4%
41) N/C(=N\OC(=O)c1ccc(Cl)cc1)c1[nH]ncc1Br
 : -12%	.
42) O=S(=O)(NC1CCCC1)c1ccc(Br)s1
 : -4%	2%
43) Cc1oc(-c2ccccc2)cc1C(=O)Nc1ccc2ccccc2c1
 : -1%	-4%
44) CN(Cc1ccco1)C(=O)c1ccc(OC2CCN(Cc3ccccn3)CC2)cc1
 : 15%	4%
45) CNC(=O)COC(=O)/C=C/c1cccc(F)c1
 : 0%	0%
46) C[C@@H](NCCc1ccc(O)cc1)[C@@H](O)c1ccc(O)cc1
 : 3%	7%[56.1 µM]
47) COc1cccc(CNC(=O)C2CCN(S(=O)(=O)c3ccc4c(c3)CC(C)N4C(C)=O)CC2)c1 (centres undefined)
 : 15%	4%
48) O=C(Cc1ccsc1)N1CCc2c([nH]c3ccccc23)C1c1ccccn1 (centres undefined)
 : -16%	5%
49) Cc1cc(C)cc(NC(=O)[C@@H](NC(=O)c2ccco2)C(C)C)c1
 : 14%	8%
50) COc1ccc(CCNC(=O)C2CCCN(S(C)(=O)=O)C2)cc1OC (centres undefined)
 : -3%	8%
51) COc1ccc2c(c1)C(c1cccs1)=NNC(c1ccncc1)=N2
 : -2%	5%
52) Cc1cc(NC(=O)COC(=O)c2c(C)nn(-c3ccccc3)c2C)no1
 : 12%	1%
53) O=C1Nc2ccccc2C1=Nc1ccc(Cl)cc1
 : -1%	.
54) O=C(CC1Oc2ccccc2NC1=O)NC1CC1 (centres undefined)
 : .	0%
55) OC(CN1C2=NCCN2c2ccccc21)c1ccc(Br)cc1 (centres undefined)
 : -5%	4%
56) CCCn1c(=O)c(C(=O)c2ccccc2)nc2ccccc21
 : -2%	4%
57) Cc1ccc(-c2csc3ncn(CC(=O)N4CCOCC4)c(=O)c23)cc1
 : -2%	0%
58) COc1ccc(Cl)cc1NC(=O)C[n+]1ccccc1
 : -4%	.
59) Cc1ccc(Oc2ccc(OCC(=O)NC(C)C(=O)O)cc2)cc1 (centres undefined)
 : -14%	0%
60) O=C(NNC(=S)NC(=O)c1ccc(Br)cc1)c1cccc([N+](=O)[O-])c1
 : 13%	.
61) CN(C)S(=O)(=O)c1cccc(COC(=O)c2cnccn2)c1
 : -3%	.
62) N/C(=N\OC(=O)CCn1cccc(C(F)(F)F)c1=O)c1ccc(OC(F)(F)F)cc1
 : 4%	2%
63) CCCCn1c(=O)c(C(C)=O)c(O)c2ccccc21
 : -5%	-3%
64) C=CCc1cc(/C=C2/NC(=O)N(CC(=O)OC)C2=O)cc(OC)c1O
 : 1%	-8%
65) CN(Cc1ccccc1)C(=O)CCS(=O)(=O)c1ccc2c(c1)NC(=O)CS2
 : 11%	0%
66) CC1=C(C)CC(C(=O)NNC(=O)c2csc(C)c2C)C(C(=O)O)C1 (centres undefined)
 : -9%	8%
67) Cc1cccc(NC(=O)CCN2C(=O)c3ccccc3C2=O)n1
 : -3%	-1%
68) C/C(=N\O)C(C)(C)Nc1ccc(F)cc1
 : 14%	.
69) CC(=O)NCC1CCCN(c2nc3nonc3nc2N(C)Cc2ccccc2)C1 (centres undefined)
 : 0%	0%
70) COCC(C)N1CCC(n2nccc2NC(=O)c2ccc3c(c2)OCO3)CC1 (centres undefined)
 : -3%	1%
71) COc1ccc(CCN2C(=S)N(C)C(=O)C2CC(=O)Nc2ccc(OC)cc2)cc1 (centres undefined)
 : -23%	0%
72) COc1cccc(OC)c1C(=O)Nc1ccccc1N1CCCCC1
 : -4%	.
73) Nc1nnc(N2CCCCCC2)s1
 : -13%	-4%
74) CCCCNC(=O)C1CCC(CNS(=O)(=O)c2ccc(NC(C)=O)cc2)CC1 (centres undefined)
 : 16%&6%	-1%&-1%
75) COC(=O)c1sc(-c2ccccc2)cc1NC(=O)c1ccc(F)cc1
 : 13%	3%
76) CCCCCSc1nncc(=O)[nH]1
 : 1%	0%
77) Cc1ccc(S(=O)(=O)N2CCN(C(=O)CSc3nnnn3C)C2)cc1
 : 3%	7%
78) O=C(NCCCc1ccccc1)c1cncc(Br)c1
 : 17%	.
79) CCOC(=O)N1CCC(NC(=O)CSCc2nc(-c3ccc(OC)c(OC)c3)oc2C)CC1
 : 1%	4%
80) COc1cccc(N2CCN(c3ccc4nnc(CCC(=O)Nc5ccc(C)cn5)n4n3)CC2)c1
 : -8%	4%

Later entries
Each structure is followed by: FEN1 inh	TDP1 block
81) CCCCCCCC(=O)Oc1ccc(C(=O)Nc2cc(C)on2)cc1
 : -8%	.
82) CCc1cccc(OCCCCN(CC)CC)c1
 : 15%	-2%
83) Cc1ccc(CCNC(=O)CCc2nc3ccccc3[nH]2)cc1
 : -6%	-7%
84) COc1cc(C(=O)OCC(=O)Nc2cc(C)on2)cc(OC)c1OC
 : 8%	0%
85) CC1CCc2nc(NC(=O)c3cc(C(C)(C)C)nn3C)sc2C1 (centres undefined)
 : 8%	.
86) CCCCn1c(CN2CCN(c3ccccc3)CC2)nc2c1c(=O)n(C)c(=O)n2C
 : 12%	5%
87) CCCn1c(SCC(=O)NC2CCCc3ccccc32)n[nH]c1=O (centres undefined)
 : 6%	0%
88) C=CCn1c(Sc2nc(C)cs2)nc2c1c(=O)[nH]c(=O)n2C
 : -4%	4%
89) CC(=O)Nc1ccc(S(=O)(=O)NNC(=O)COc2cccc3ccccc23)cc1
 : -3%	-3%
90) N#Cc1c(N)oc(-c2ccccc2)c1-c1ccccc1
 : -2%	5%

Structural class, the entries above with a furan ring, fused or not (6)
Each structure is followed by: FEN1 inh	TDP1 block
16) O=C(CCCCn1c(=O)c2ccccc2n(Cc2ccc(F)cc2)c1=O)NCc1ccco1
 : -7%	0%
21) CCOC(=O)CNC(=O)Cn1cnc2c(oc3ccccc32)c1=O
 : 2%	2%
43) Cc1oc(-c2ccccc2)cc1C(=O)Nc1ccc2ccccc2c1
 : -1%	-4%
44) CN(Cc1ccco1)C(=O)c1ccc(OC2CCN(Cc3ccccn3)CC2)cc1
 : 15%	4%
49) Cc1cc(C)cc(NC(=O)[C@@H](NC(=O)c2ccco2)C(C)C)c1
 : 14%	8%
90) N#Cc1c(N)oc(-c2ccccc2)c1-c1ccccc1
 : -2%	5%

(further entries)
Each structure is followed by: FEN1 inh	TDP1 block
91) CCN1C(=O)/C(=C/c2cn(C)nc2C)SC1=S
 : 16%	2%
92) C/C(=N\NC(=O)CN(c1ccccc1)S(=O)(=O)c1ccccc1[N+](=O)[O-])C(C)(C)C
 : 3%	3%
93) Cn1c(=O)c2c(nc(N3CCc4ccccc4C3)n2Cc2ccc(Br)cc2)n(C)c1=O
 : 6%	-7%
94) COc1ccc(CC(=O)NC2CCN(CC(=O)Nc3ccc4c(c3)OCCO4)CC2)cc1OC
 : -11%	6%
95) O=C(COc1ncnc2c(Cl)cc(Cl)cc12)N1CCN(S(=O)(=O)c2ccccc2)CC1
 : -1%	-2%
96) CC(C)c1ccc(/C=C2\SC(N3CCOCC3)=NC2=O)cc1
 : -1%	3%

Shown screen by screen: part of the list above
96: CC(C)c1ccc(/C=C2\SC(N3CCOCC3)=NC2=O)cc1
94: COc1ccc(CC(=O)NC2CCN(CC(=O)Nc3ccc4c(c3)OCCO4)CC2)cc1OC
91: CCN1C(=O)/C(=C/c2cn(C)nc2C)SC1=S

Compound | 96 | 94 | 91
FEN1 inh | -1% | -11% | 16%
TDP1 block | 3% | 6% | 2%
